# Rango complex inh = prevents formation of the Rango-importin beta complex; Q14974; Rango CFP/YFP FRET sensor + importin beta, 45 min; Potency, µM (doses to about 92.2 µM), for inactives: at the top dose inhibition of complex formation; hit rate 0.031% among 340,000; AID 540263; active = rising FRET ratio curve, often small or poorly fitted; inconclusive = mostly compound fluorescence or quenching in the first reads; inactive = flat curves in all reads;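 note: potency is the fitted concentration of half-maximal effect; 0% = DMSO wells and 100% = buffer wells lacking importin beta; nearly all actives have a fitted effect of over 15% in size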
# Target sequence (Q14974 whole entry, looked up): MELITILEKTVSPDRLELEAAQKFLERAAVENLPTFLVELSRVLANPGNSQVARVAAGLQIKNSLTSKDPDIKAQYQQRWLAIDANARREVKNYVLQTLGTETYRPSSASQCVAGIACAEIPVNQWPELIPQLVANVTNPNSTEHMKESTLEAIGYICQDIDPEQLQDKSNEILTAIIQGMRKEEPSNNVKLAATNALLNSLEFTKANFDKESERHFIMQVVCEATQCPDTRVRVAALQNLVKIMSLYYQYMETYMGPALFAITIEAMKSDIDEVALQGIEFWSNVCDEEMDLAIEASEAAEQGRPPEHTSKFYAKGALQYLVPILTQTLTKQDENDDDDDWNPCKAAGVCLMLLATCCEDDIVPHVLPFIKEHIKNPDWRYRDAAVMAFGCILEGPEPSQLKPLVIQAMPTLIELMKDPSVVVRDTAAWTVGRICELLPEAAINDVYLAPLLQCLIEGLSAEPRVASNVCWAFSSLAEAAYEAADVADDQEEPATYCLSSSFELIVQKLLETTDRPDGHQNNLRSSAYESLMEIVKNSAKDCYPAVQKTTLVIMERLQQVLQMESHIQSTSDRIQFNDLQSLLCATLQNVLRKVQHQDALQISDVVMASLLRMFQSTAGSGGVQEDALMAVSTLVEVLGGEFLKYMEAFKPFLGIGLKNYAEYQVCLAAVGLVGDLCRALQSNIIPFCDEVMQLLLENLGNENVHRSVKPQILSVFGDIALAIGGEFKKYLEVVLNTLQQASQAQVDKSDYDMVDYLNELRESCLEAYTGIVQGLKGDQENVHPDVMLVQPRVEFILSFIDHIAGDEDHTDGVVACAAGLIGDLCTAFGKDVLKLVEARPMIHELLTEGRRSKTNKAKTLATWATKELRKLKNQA
#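 FRET biosensor (snurportin 1 IBB flanked by EYFP and cerulean), 50 nM, with compound 5 min, then 0.125 microM importin beta in PBS, 1 mM DTT, 0.02% Tween-20, 0.1% BSA. CFP/YFP ratio read after 45 min at room temperature; pre-read flags interference.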
# Rango dissoc inh = inhibitors of RanGTP-induced Rango-importin beta complex dissociation; hit rate 0.071% among 340,000; AID 540253; Biochemical FRET Rango-importin beta, RanGTP-induced dissociation; Potency, µM (series often up to 46.1 µM), inactives show at the highest dose activity change, negative = inhibition; active means falling FRET ratio curve, often poorly fitted, with flat reads before Ran was added; inconclusive means other falling curves, or compound fluorescence or quenching; inactive means flat or rising ratio curve;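 note: potency is the fitted concentration of half-maximal effect; % of control where 0% means no effect; nearly all actives have a fitted effect of over 45% in size; -100% = wells without RanGTP and RCC1; the record marks most hits as doubtful in a second field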
#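 Compounds sat 5 min at room temperature with 0.1 uM Rango biosensor plus 0.25 uM importin beta, then FRET pre-read. RanGTP-RCC1 (0.6 uM Ran, 2mM GTP, 0.2 uM RCC1) added for 45 min, and the CFP/YFP post-read measured blocked complex dissociation.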
# GLA inh pH 4.5 = blocks human alpha-galactosidase A at pH 4.5 | P06280 | purified enzyme, 4-MU-alpha-Gal fluorescence, pH 4.5 | activity change, negative = inhibition, % at 105 µM | 230,000 tested, under 10 active; inconclusive = small, poorly fitted or top-dose-only inhibition, or a rising curve; inactive = flat fitted curve, though single readings scatter; no compound was filed as active;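 note: 0% = full activity with enzyme and -100% = basal without enzyme; dose as in the result columns while the protocol names 77 µM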
# miR-21 reporter = raises the signal of a miR-21 reporter; HeLa miR-21 FLuc reporter, luciferase, 48 h; Potency, µM (series often up to 38.3 µM), inactives show at the highest dose reporter change, positive = more light; 340,000 tested, under 10 active; AID 2288; active = well fitted rising curve with a large enough effect; inconclusive = small, poorly fitted or top-dose-only effect; inactive = no such curve, though single readings can be large or run the other way;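 note: % of control where 0% means no effect; miR-21 action dims this reporter so a rising signal means less miR-21 action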
#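 HeLa miR-21-FLuc reporter line, endogenous miR-21; 2000 cells/well in DMEM/10% FBS; compound titration up to ~40uM final, 48 h, 37 degree Celsius; luciferase detection reagent, 15 min lysis, CCD luminescence.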
# An asterisk follows results filed as active; u = inconclusive; x = no result given.
structure,Rango dissoc inh,GLA inh pH 4.5,miR-21 reporter,Rango complex inh
Cc1cccc2sc(NNC(=O)c3ccc(S(=O)(=O)N4CCCC(C)C4)cc3)nc12 (centres undefined),-18%,-9,25%,1.5%
O=C(CCN1CCCCC1c1cccnc1)NCc1ccccc1 (centres undefined),u,4,-8%,u
COc1ccc(CCNC(=O)c2c(O)c3ccccc3n(C)c2=O)cc1,5%,x,-5%,3.4%
COc1ccc(C2N=C(c3ccccc3)NO2)cc1OC (centres undefined),1%,x,-70%,4.2%
Cc1ccccc1NC(=O)Cc1nnc(SCC(=O)NC2=NCCS2)n1C,-14%,x,0%,4.0%
C#CCNC(=O)C1=C[C@H](c2csc3ccccc23)[C@@H](CCCO)[C@H](OCC)O1,1%,7,3%,-2.6%
Cc1n[nH]c(C)c1C(=O)CC1(O)C(=O)N(CCc2ccccc2)c2ccc(Br)cc21 (centres undefined),-4%,-11,1%,-2.0%
CCN(CC)C(=O)COc1ccc(/C(C)=N/NC(=O)c2ccccc2Br)cc1,4%,-3,-18%,2.2%
Cc1nnc(NC(=O)CSc2nnc3c(n2)[nH]c2ccc(Br)cc23)s1,-5%,x,1%,-0.7%
COCC(=O)N(c1ccccc1)C(C)C(=O)OC (centres undefined),-3%,9,-6%,-1.3%
O=C(Cn1nc(C(=O)O)c2ccccc2c1=O)Nc1ccc2c(c1)C(=O)c1ccccc1C2=O,x,-14,-48%,x
Cc1ccc(-n2ncc3c(NCCCOC(C)C)ncnc32)c(C)c1,7%,-3,-2%,-4.5%
CCn1cc(C(=O)NCc2ccco2)c(=O)c2cc(S(=O)(=O)N3CCc4ccccc4C3)ccc21,-11%,-4,14%,u
O=S(=O)(NCc1ccco1)c1ccccc1Br,-7%,-9,-1%,0.9%
CC(=O)Nc1ccc2nc(C3CCCCC3)[nH]c2c1,6%,8,-23%,0.4%
CCOc1ccc(NC(=O)CN(C)C(=O)C2CCCO2)cc1OCC (centres undefined),-5%,x,x,0.3%
O=C(CCSc1ccc(Cl)cc1)NN=C1CCCCCC1,0%,-1,-1%,0.8%
COc1ccc(-c2n[nH]c(=S)n2/N=C/C=C\c2ccccc2OC)cc1,-6%,-10,0%,0.1%
C(=N\N=C\c1ccncc1)/c1ccncc1,-15%,x,x,-0.5%
NC(CO)c1cn([C@@H](CCC(=O)O)C(=O)N2CCNCC2)nn1 (some centres undefined),19%,-1,1%,u
COc1ccc(C(=O)NNC(=O)CNC(=O)C2CCCCC2)cc1,27%,-10,-1%,-0.8%
CCCNC(=O)c1cc(S(=O)(=O)N2CCCCC2)c[nH]1,-9%,x,3%,-3.4%
COc1cccc(/C=N/Nc2ccc(Cl)nn2)c1,8%,x,-34%,0.5%
COc1ccc(-n2c(C)nc3cc(C(=O)O)ccc32)cc1,-15%,4,-11%,1.0%
CC(=O)c1ccc(NC(=O)Cn2c3ccccc3c3nc(=O)cc(C)n32)cc1,-12%,-3,4%,1.5%
COCCCN(CC(=O)Nc1ccc(F)cc1)S(=O)(=O)c1cccs1,18%,x,x,-6.9%
CCCCn1c(N)c(N(CCOC)C(=O)CSc2nnc(C)n2-c2ccc(OC)cc2)c(=O)[nH]c1=O,-5%,x,x,u
CCOC(=O)c1ccccc1NC(=O)c1ccc2nccnc2c1,-10%,1,-1%,u
COc1cc(/C=C2/SC(=O)N(Cc3ccccc3Cl)C2=O)ccc1OCc1ccncc1,1%,10,-5%,-1.0%
C=CCN1C(c2cccc(C(F)(F)F)c2)=CS/C1=C(/C#N)c1nnc(N2CCOCC2)n1-c1ccccc1,-13%,-13,27%,-1.3%

# Four entries from above, with values ahead of the structure:
Rango dissoc inh | GLA inh pH 4.5 | miR-21 reporter | Rango complex inh | SMILES
-6% | -10 | 0% | 0.1% | COc1ccc(-c2n[nH]c(=S)n2/N=C/C=C\c2ccccc2OC)cc1
-15% | x | x | -0.5% | C(=N\N=C\c1ccncc1)/c1ccncc1
19% | -1 | 1% | u | NC(CO)c1cn([C@@H](CCC(=O)O)C(=O)N2CCNCC2)nn1 (some centres undefined)
27% | -10 | -1% | -0.8% | COc1ccc(C(=O)NNC(=O)CNC(=O)C2CCCCC2)cc1

# (continued)
structure,Rango dissoc inh,GLA inh pH 4.5,miR-21 reporter,Rango complex inh
CC1(C)C(c2ccccn2)=[N+]([O-])C(C)(C)N1O,13%,2,-3%,-5.5%
CCn1c2ccccc2c2cc(/C=N/NC(=O)c3ccccc3)ccc21,18%,-7,17%,u
CN(C)C(=O)c1cnc(-c2ccccc2)nc1-c1ccccc1,2%,x,-10%,-0.2%
COc1ccc(C(=O)N2CCN(CCc3ccccc3)CC2)cc1[N+](=O)[O-],2%,x,-3%,-4.7%
CC(=O)Nc1cccc(OC(=O)N2CCOCC2)c1,19%,2,0%,-0.3%
CCN(CC(=O)Nc1ccc(OC)cc1)C(=O)c1ccc([N+](=O)[O-])cc1,0%,1,1%,2.7%
COc1ccc(C2CC(c3ccccc3)=NN2S(=O)(=O)c2ccc(C)cc2)c(OC)c1 (centres undefined),8%,-2,-10%,1.3%
Cc1ccc(S(=O)(=O)N(C)CC(=O)N2CCC(C(N)=O)CC2)cc1,-9%,x,1%,0.9%
CCCCSc1nnc(CCNC(=O)OC(C)(C)C)o1,22%,4,-10%,-3.1%
CC(=O)CC(C)(C)Nc1nc2ccc([N+](=O)[O-])cc2o1,-16%,4,2%,3.1%
COc1ccc(S(=O)(=O)N2CCOCC2)cc1NC(=O)/C=C/c1ccccc1,6%,x,x,-0.4%
c1ccc(CSCc2ccccc2)cc1,9%,x,x,-0.9%
O=C(O)c1ccc2c(=O)n(-c3ccccc3)c(=S)[nH]c2c1,-13%,12,0%,0.7%
CCc1cc(C(=O)Nc2cc(S(=O)(=O)N3CCOCC3)ccc2N2CCN(CC)CC2)sc1C,-8%,x,x,-4.7%
Cc1ccc(S(=O)(=O)C(C#N)c2nc3ccccc3nc2N2CCN(C)CC2)cc1 (centres undefined),u,-4,23%,u
CC(C)(C)C1=CC(=Nc2ccccc2N)C=C(C(C)(C)C)C1=O,-6%,3,-8%,u
Cc1ccc2nsnc2c1S(=O)(=O)N(Cc1ccco1)Cc1cc2ccc(C)c(C)c2[nH]c1=O,-1%,-18,-7%,-0.4%
COc1ccc2oc(CS(=O)c3ccccc3)c(C(=O)O)c2c1 (centres undefined),-4%,x,-14%,0.2%
Cc1ccc(S(=O)(=O)NCCC(=O)N2CCN(C/C=C/c3ccccc3)CC2)cc1,9%,x,x,0.4%
CCN(CC)CCNc1ncnc2c1[nH]c1ccc(OC)cc12,x,-5,-2%,x
O=C(O)c1ccc(C(=O)O)c(C(=O)c2ccc(NC(=O)c3ccccc3)cc2)c1,-3%,x,4%,1.6%
Cc1ccc(/C=C2\Oc3cc(OC(=O)N4CCOCC4)ccc3C2=O)cc1,-11%,-8,-4%,-2.8%
CCOc1ccc(NC(=S)N2CCN(CCN3C(=O)c4cccc5cccc(c45)C3=O)CC2)cc1,0%,-6,-2%,-1.6%
CCOC(=O)[C@H]1[C@H]2COc3cc(OC)ccc3[C@@H]2N2C(=O)CN(Cc3ccco3)C(=O)[C@@]12C,u,x,x,-5.7%
Cc1ccccc1Oc1cccc(C(=O)/C(C#N)=C/N(C)C)c1,-12%,4,-6%,-0.6%
CC(C)(C)N1C(=O)[C@H]2[C@@H](c3ccc(Br)cc3)N3C(=O)N(c4ccccc4)C(=O)[C@@]3(Cc3ccccc3)[C@H]2C1=O,0%,x,x,0.7%
O=c1oc2ccccc2c2c1SC(C(F)(F)F)C2 (centres undefined),36%,22,-16%,6.1%
CN(CC(=O)NCCc1ccc(F)cc1)Cc1ccc(Br)cc1,15%,x,-5%,6.6%
COc1ccc(S(=O)(=O)N(Cc2cc3cc(C)ccc3[nH]c2=O)CC2CCCO2)cc1 (centres undefined),17%,-1,-4%,4.0%
CCOc1ccc(NC(=O)CSc2nc(N3CCOCC3)nc(N3CCOCC3)n2)cc1,1%,x,-3%,-3.1%

# Further entries
structure,Rango dissoc inh,GLA inh pH 4.5,miR-21 reporter,Rango complex inh
CC1(C)NC(=O)N(CC(=O)OCC(=O)c2ccc(Cl)s2)C1=O,1%,x,x,u
O=C(COC(=O)c1ccc(CO)cc1)Nc1ccc2ccccc2c1,0%,x,x,-0.9%
Cc1ccc(Cn2nnc3c(=O)[nH]c(C(=O)NCc4ccco4)nc32)cc1,0%,-13,-30%,6.2%
COc1ccc(OC)c(Nc2nc(NCc3ccco3)c3ccccc3n2)c1,u,x,29%,u
O=S(=O)(c1ccccc1)N(Cc1nc(-c2ccccc2)no1)C1CCCCC1,-11%,-2,7%,6.8%
COc1ccc(NS(=O)(=O)c2cccc(C(=O)N3CCCCCCC3)c2)cc1,2%,x,x,-0.5%
CN(C)c1ccc(CNc2ccc3c(c2)ncn3C)cc1,0%,4,5%,0.5%
COc1ccccc1/C=N/n1cnnc1,5%,0,-4%,1.2%
CSc1ncc(CNc2cc([N+](=O)[O-])ccc2C)c(N)n1,2%,x,x,-0.1%
Cc1ccc(C(=O)Oc2coc(CSc3nnc(NC(=O)c4cccs4)s3)cc2=O)cc1,-10%,-3,-3%,-4.5%
O=S(=O)(c1ccccc1)c1nc(-c2ccco2)oc1NCc1ccccc1,-18%,3,4%,1.2%
CC(C)C[C@H]1CNC(=S)N1CC1CCCN1C[C@H](Cc1ccccc1)N1C[C@H](Cc2ccc(O)cc2)N(CC2CCCCC2)C1=S (some centres undefined),14%,x,x,1.0%
CC(C)CC(=O)Nc1ccc(C(=O)CN2CCC(C)CC2)cc1,-28%,-10,-8%,u
Fc1cccc(Cl)c1CSc1nnc2ccccn12,7%,-8,-60%,-5.5%
O=C(COCc1ccccc1)N[C@@H]1c2ccccc2CC[C@@H]1OCc1ccccc1,5%,x,x,-6.5%
COc1ccc(N(CC(=O)NC2CCCCC2C)S(=O)(=O)c2c(C)nn(C)c2C)cc1 (centres undefined),1%,x,-4%,-1.2%
CCOC(=O)C1(CCCc2ccccc2)CCN(C2CCN(C(C)=O)CC2)CC1,2%,x,-1%,-0.4%
CCOC(=O)N1CCN(S(=O)(=O)c2ccc(OCC)c(C)c2)CC1,-12%,3,-2%,-4.9%
Cc1ccnc(NS(=O)(=O)c2ccc(NC(=O)Cc3ccccc3)cc2)n1,-1%,3,-8%,0.2%
O=C(Nc1ccc(Cl)cc1)OCc1cn(-c2ccc(Cl)cc2)nn1,5%,-27,-33%,6.9%
CN1N=C(C(C)(C)C)CSC1=Nc1ccc(F)cc1,4%,-1,-4%,0.1%
CCCS(=O)(=O)c1nc(S(=O)(=O)c2ccc(Cl)cc2)c(N2CCC(O)CC2)s1,3%,x,13%,-0.6%
C=C1C(=O)OC2C=C(CO)C3OC3C3OC3(C)CC(OC(=O)/C(=C/C)COC(C)=O)C12 (centres undefined),14%,x,x,5.3%
COC(=O)CN1C(=O)CSc2ncccc21,-11%,0,-9%,0.4%
COc1ccc([N+](=O)[O-])cc1NC(=O)C(C)OC(=O)Cc1ccc(OC)c(OC)c1 (centres undefined),1%,x,x,-3.7%
COc1cc(C(=S)N2CCCC2)ccc1O,15%,6,0%,-0.3%
O=C(Nc1ccc(F)cc1F)NC1CCCc2ccccc21 (centres undefined),9%,x,2%,-2.2%
CCOc1ccc(C(CC(=O)O)NC(=O)Cc2ccccc2)cc1OC (centres undefined),11%,x,3%,-4.2%
CC(=O)c1cn(-c2ccc(Cl)cc2)c(=O)n(Cc2ccc(Br)cc2)c1=O,21%,8,0%,1.3%
Fc1ccccc1CN1CCCC(NC2CCC2)C1 (centres undefined),8%,x,3%,1.6%
Cc1[nH][nH]c(=O)c1N=Nc1ccccc1,-5%,2,-12%,-0.1%

# Not all compounds are listed; the hit share may differ from the screen's.
